Screens (PubChem BioAssay)
DUX4 txn inh – blocks DUX4-driven transcriptional activation; 293T-iDUX4 ZSCAN4-Gaussia luciferase reporter, 24 h; active compounds read low; activity change, negative = inhibition, % (concentration not given with the values); actives 0.8% (n = 37,000);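 active = -10% or lower and over 25 points stronger than a control reporter; inconclusive = -10% or lower with a smaller gap; inactive = above -10%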;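 also: 0% = median of neutral control wells and -100% = median of positive control wells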
DUX4 txn inh difference – recorded beside DUX4 txn inh, whose call it bears; Gaussia minus Italica difference, %; measured here: selective DUX4 reporter inhibition;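 worked out from the two reporters; negative = selective loss of the DUX4 reporter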
DUX4 txn inh control – also measured in DUX4 txn inh; calls as there; activity change, negative = inhibition, %; measured here: Italica tet-on control reporter;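 0 = neutral control and -100 = positive control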
* hit, by the source's call; ? = inconclusive; / = not tested or not shown; & = joins results of further samples. Only part of the results is shown. The share of hits here may be higher or lower than overall.

SMILES	DUX4 txn inh control	DUX4 txn inh	DUX4 txn inh difference
Cc1noc(C)c1NC(=O)N[C@H]1CC[C@@H](CC(=O)NCc2ccc(Cl)c(Cl)c2)O[C@@H]1CO	6.6	5	-2
COc1ccc(C(=O)N2C[C@H]3[C@@H](c4ccccc42)[C@@H](CO)N3C(=O)Cc2ccccn2)cc1	1.7	1	-1
O=C(Nc1cc(F)ccc1F)N1CCCCN2[C@H](CO)[C@H](c3ccc(-c4cccnc4)cc3)[C@H]2C1	/	?	/
CN(C)C(=O)c1ccc(-c2ccc(C3[C@@H]4CN(Cc5cccnc5)C[C@H]3N4)cc2)cc1 (stereo partly drawn)	-10&3.7	4&1	14&-3
O=C(c1ccc2c(c1)OCO2)N1C[C@H]2[C@@H](c3ccccc31)[C@H](CO)N2Cc1ccccc1Cl	1.2	-1	-2
COCC(=O)N1C[C@@H](C)[C@H](OC)CN(C)C(=O)c2cc(NC(=O)Nc3ccccc3)ccc2OC[C@H]1C	-4.5	0	5
CO[C@H]1CN(C)C(=O)c2cc(NC(=O)NC3CCCCC3)ccc2OC[C@H](C)N(CC2CCOCC2)C[C@H]1C	4.5	-2	-7
COCC(=O)N1C[C@@H]2[C@H](c3ccccc31)[C@H](CO)N2C(=O)Nc1ccccc1F	2.8	-1	-4
COc1ccc(CNC(=O)C[C@@H]2C[C@@H]3c4cc(NC(=O)CN(C)C)ccc4O[C@@H]3[C@H](CO)O2)cc1	6.0	0	-6
CN1C(=O)c2cc(NC(=O)c3cc(F)cc(F)c3)ccc2OC[C@@H]2O[C@H](CC(=O)O)CC[C@@H]21	4.3	0	-5
CC=Cc1ccc2n(c1=O)C[C@@H]1[C@@H](CO)[C@H](C(=O)N3CCOCC3)[C@H]2N1CC1CC1 (mixture of isomers)	-0.5	1	2
CN(C)C(=O)c1cccc(-c2ccccc2[C@H]2[C@H](C#N)N(C(=O)C3CCCCC3)[C@H]2CO)c1	-0.8	-4	-4
CO[C@H]1CN(C)C(=O)c2ccc(NC(=O)c3cc(C)on3)cc2OC[C@@H](C)N(CC2CC2)C[C@@H]1C	1.9	7	5
COc1ccc(-c2cccc(-c3nc(C(=O)N(C)C)cc4c3[C@@H](CCO)N([S@](=O)C(C)(C)C)C4)c2)cc1	1.9	0	-2
O=C(NC1Cc2ccccc2C1)[C@H]1[C@H](CO)[C@H]2Cn3c(ccc(-c4ccccc4F)c3=O)[C@@H]1N2	-8.1	2	10
O=C(C[C@H]1C[C@@H]2c3cc(NC(=O)c4ccc5c(c4)OCO5)ccc3O[C@@H]2[C@@H](CO)O1)NCCc1ccccc1	/	?	/
C[C@@H]1CCCCO[C@@H](CN(C)CC2CCCCC2)[C@@H](C)CN([C@H](C)CO)C(=O)c2cc(NC(=O)Nc3ccc(C(F)(F)F)cc3)ccc2O1	-1.8	0	2
CO[C@@H]1CC[C@H]2CCOc3c(C#N)cccc3C(=O)N(C)C[C@@H](C)C(=O)N(C)C[C@@H]1O2	-3.7	0	4
C[C@@H]1CN([C@@H](C)CO)C(=O)c2cc(NC(=O)Nc3ccc(C(F)(F)F)cc3)ccc2O[C@@H](C)CCCCO[C@@H]1CN(C)CC1CCCCC1	-0.1	3	3
CCCC#Cc1ccc([C@H]2[C@H]3CN(C(=O)NC4CCCC4)CCCCN3[C@H]2CO)cc1	-0.4	-3	-2
C[C@@H]1CN([C@@H](C)CO)C(=O)CCCn2cc(nn2)CO[C@H]1CN(C)C(=O)OCc1ccccc1	0.7	9	8
Cc1noc(C)c1NC(=O)N(C)C[C@H]1OCc2ccccc2-c2c(n(C)c3ccccc23)C(=O)N([C@@H](C)CO)C[C@@H]1C	6.2	5	-1
Cc1ccc(S(=O)(=O)Nc2ccc3c(c2)C(=O)N([C@H](C)CO)C[C@H](C)[C@H](CN(C)C(=O)NC2CCCCC2)OCCCC[C@H](C)O3)cc1	-1.2	3	4
O=C1CN(Cc2ccc(F)cc2)C[C@@H]2[C@H](c3ccc(-c4ccccc4)cc3)[C@H](CO)N12	13	9	-4
C[C@@H]1CCCCO[C@@H](CN(C)C(=O)CCCN(C)C)[C@@H](C)CN([C@H](C)CO)C(=O)c2cc(NC(=O)CCC(F)(F)F)ccc2O1	-1.3	-1	0
COc1ccc(NC(=O)N2C[C@H](O)COC[C@H]3O[C@@H](CC(=O)NCc4ccccc4OC)CC[C@@H]32)cc1	2.5	4	1
CN(C)CCCNC(=O)C[C@@H]1CC[C@H]2[C@@H](COc3ccc(NS(C)(=O)=O)cc3C(=O)N2C)O1	4.4	2	-2
C[C@@H]1CN([C@@H](C)CO)C(=O)c2cc(Br)cnc2O[C@@H]1CN(C)C(=O)C1CCCCC1	0.9	2	1
Cn1cnc(CCNC(=O)C[C@@H]2CC[C@H]3[C@@H](COC[C@H](O)CN3C(=O)Nc3ccc(F)cc3)O2)c1	3.1	17	14
CCCC(=O)Nc1ccc2c(c1)OC[C@H](C)N(Cc1cncnc1)C[C@H](C)[C@H](OC)CN(C)C2=O	-0.8	0	1

Profiles from above. Order of screens: DUX4 txn inh control	DUX4 txn inh	DUX4 txn inh difference
`COc1ccc(CNC(=O)C[C@@H]2C[C@@H]3c4cc(NC(=O)CN(C)C)ccc4O[C@@H]3[C@H](CO)O2)cc1` is listed as 6.0	0	-6
`COc1ccc(C(=O)N2C[C@H]3[C@@H](c4ccccc42)[C@@H](CO)N3C(=O)Cc2ccccn2)cc1` is listed as 1.7	1	-1
`CN1C(=O)c2cc(NC(=O)c3cc(F)cc(F)c3)ccc2OC[C@@H]2O[C@H](CC(=O)O)CC[C@@H]21` is listed as 4.3	0	-5
`COCC(=O)N1C[C@@H](C)[C@H](OC)CN(C)C(=O)c2cc(NC(=O)Nc3ccccc3)ccc2OC[C@H]1C` is listed as -4.5	0	5
`O=C1CN(Cc2ccc(F)cc2)C[C@@H]2[C@H](c3ccc(-c4ccccc4)cc3)[C@H](CO)N12` is listed as 13	9	-4

Continuation.
SMILES	DUX4 txn inh control	DUX4 txn inh	DUX4 txn inh difference
COc1cccc(S(=O)(=O)N2CCCCN3[C@H](CO)[C@H](c4ccc(-c5cccnc5)cc4)[C@H]3C2)c1	/	?	/
COc1cc(CN2CC3(CN(C(C)=O)C3)c3c([nH]c4cc(OC)ccc34)[C@H]2CO)cc(OC)c1	-11	-5	6
O=C(Cc1ccncc1)NCC[C@@H]1CC[C@@H](NS(=O)(=O)c2ccccc2Cl)[C@@H](CO)O1	2.9	6	3
CS(=O)(=O)N1[C@H](CO)[C@H](c2ccccc2-c2ccc(F)cc2)[C@@H]1C#N	8.6	17	8
Cc1noc(C)c1NC(=O)Nc1cccc2c1O[C@H](CN(C)Cc1ccc(C(=O)Nc3ccccc3N)cc1)[C@@H](C)CN([C@H](C)CO)C2=O	0.2	0	0
COCCNC(=O)C[C@@H]1C[C@@H]2c3cc(NS(C)(=O)=O)ccc3O[C@@H]2[C@H](CO)O1	5.2	4	-1
COCCNC(=O)C[C@H]1C[C@@H]2c3cc(NC(=O)Nc4ccc(C(F)(F)F)cc4)ccc3O[C@@H]2[C@@H](CO)O1	-5.3	-6	0
CCCC#Cc1ccc2c(c1)O[C@@H](CN(C)S(=O)(=O)c1cccc(F)c1)[C@@H](C)CN([C@@H](C)CO)S2(=O)=O	-1.1	-2	-1
CO[C@H]1CN(C)C(=O)c2cc(C#N)ccc2OCC[C@@H]2CC[C@@H](OC)[C@@H](CN(C)C(=O)[C@H]1C)O2	-0.9	1	2
O=C(CC1CC1)N1[C@@H](CO)[C@@H](c2ccccc2)C12CN(Cc1cc(F)ccc1F)C2	/	?	/
O=C(C[C@@H]1CC[C@@H]2[C@H](COC[C@H](O)CN2C(=O)Nc2ccccc2)O1)NC1Cc2ccccc2C1	13	17	4
O=C(NC1CCC1)[C@@H]1[C@@H](CO)[C@@H]2Cn3c(ccc(-c4ccccc4F)c3=O)[C@@H]2N1Cc1ccncc1	-1.7	-2	-1
CC(C)NC(=O)N1CC[C@@H]2[C@H]1c1cc(C#Cc3ccccc3)ccc1N(C)[C@@H]2CO	3.1	7	4
COc1ccccc1S(=O)(=O)N(C)C[C@H]1Oc2cc(/C=C/c3ccccc3)ccc2S(=O)(=O)N([C@@H](C)CO)C[C@H]1C	3.0	2	-1
CCCNC(=O)N1C[C@H](O)COC[C@@H]2O[C@H](CC(=O)NCc3ccncn3)CC[C@H]21	6.0	3	-3
COCC(=O)N(C)C[C@H]1Oc2ncc(C#Cc3ccncc3)cc2C(=O)N([C@@H](C)CO)C[C@H]1C	1.5	2	0
Cc1noc(C)c1NC(=O)Nc1ccc2c(c1)C(=O)N(C)[C@H]1CC[C@@H](CC(=O)NCc3ccc(Cl)cc3)O[C@H]1CO2	4.7	1	-3
COc1ccc2c3c(n(C)c2c1)[C@H](CO)N(C(=O)C1CCCC1)CC31CN(C(=O)CN(C)C)C1	5.9	7	1
Cc1ccc(S(=O)(=O)N[C@H]2C=C[C@@H](CC(=O)NCc3ccc(Cl)c(Cl)c3)O[C@H]2CO)cc1	-10	-8	3
CC(C)[C@H]1C(=O)N[C@H](c2ccccc2)CC=CC[C@H](C)Oc2ccccc2C(=O)N1C (mixture of isomers)	1.6	1	0
CC(C)NC(=O)N(C)C[C@H]1OCc2ccccc2-c2ccccc2C(=O)N([C@@H](C)CO)C[C@H]1C	-3.4	3	6
CN1C(=O)c2cc(NC(=O)C3CCOCC3)ccc2OC[C@@H]2O[C@H](CC(=O)NCC3CCCCC3)CC[C@H]21	0.3	1	1
CC(=O)N1C[C@H]2[C@@H](c3ccccc31)[C@@H](CO)N2Cc1ccc(Cl)cc1	-0.4	2	2
CC(C)NC(=O)N1CCCCN2[C@H](CO)[C@H](c3ccc(Br)cc3)[C@H]2C1	-0.5	5	5
C[C@@H]1CN([C@@H](C)CO)C(=O)c2cccc(NC(=O)C3CCOCC3)c2O[C@@H]1CN(C)S(=O)(=O)c1cn(C)cn1	-3.7	0	4
COc1ccc(NC(=O)Nc2ccc3c(c2)C(=O)N([C@@H](C)CO)C[C@H](C)[C@@H](CN(C)S(=O)(=O)c2c(C)noc2C)OCCCC[C@H](C)O3)cc1	2.5	3	1
O=C(C[C@H]1CC[C@@H]2[C@H](COC[C@@H](O)CN2C(=O)Nc2ccc(F)cc2)O1)NC1Cc2ccccc2C1	-2.8	5	8
C[C@@H]1CCCCO[C@@H](CN(C)C(=O)Nc2cccc3ccccc23)[C@@H](C)CN([C@H](C)CO)C(=O)c2cc(NC(=O)CCC(F)(F)F)ccc2O1	1.0	-1	-2
COc1ccccc1S(=O)(=O)N(C)C[C@H]1Oc2ncc(-c3ccc(C)cc3)cc2C(=O)N([C@@H](C)CO)C[C@@H]1C	0.9	-4	-5
Cc1noc(C)c1NC(=O)N(C)C[C@H]1OCc2cn(nn2)CCCC(=O)N([C@@H](C)CO)C[C@H]1C	-2.7	5	8

Next part
SMILES	DUX4 txn inh control	DUX4 txn inh	DUX4 txn inh difference
CCS(=O)(=O)N1CC2(C1)[C@@H](c1ccccc1)[C@@H](CO)N2Cc1ccccn1	6.6	-5	-11
O=C(C[C@H]1CC[C@H]2[C@@H](COC[C@@H](O)CN2Cc2ccncc2)O1)NCc1ccncc1	2.8	6	3
Cc1noc(C)c1S(=O)(=O)Nc1ccc2c(c1)C(=O)N([C@@H](C)CO)C[C@H](C)[C@H](CN(C)Cc1ccc(C(=O)O)cc1)OCCCC[C@H](C)O2	0.1	-1	-1
CN1C(=O)c2cc(NS(C)(=O)=O)ccc2OC[C@H]2O[C@@H](CC(=O)O)CC[C@@H]21	1.4	3	1
COc1cccc(S(=O)(=O)N2C[C@@H](O)COC[C@H]3O[C@H](CC(=O)N4CCN(c5ccccc5)CC4)CC[C@@H]32)c1	-2.2	-4	-2
O=C(C1CCCC1)N1CC2(C1)[C@H](c1ccccc1)[C@H](CO)N2Cc1nccs1	4.7	9	4
C/C=C/c1ccccc1[C@@H]1[C@@H](C#N)N(C(=O)c2cccnc2)[C@@H]1CO	7.3	5	-2
O=C(NC[C@H]1[C@H](c2ccccc2)[C@@H](CO)N1CC1CC1)C1CC1	0.1	-3	-3
COc1ccc(NC(=O)N(C)C[C@H]2Oc3c(NS(=O)(=O)c4c(C)noc4C)cccc3C(=O)N([C@H](C)CO)C[C@H]2C)cc1	-0.3	1	1
C[C@@H]1CN([C@@H](C)CO)C(=O)c2cc(NC(=O)Cn3cnnn3)ccc2O[C@H]1CN(C)C(=O)Nc1ccc2c(c1)OCO2	-2.5	1	3
CCN1[C@@H]2c3ccc(C4=CCCCC4)c(=O)n3C[C@H]1[C@H](CO)[C@H]2C(=O)NCCc1ccncc1	4.0	-8	-12
COc1ccc(CN(C)C[C@@H]2OCCCC[C@H](C)Oc3ccc(NC(=O)C4CCCCC4)cc3C(=O)N([C@@H](C)CO)C[C@H]2C)cc1	-9.2	-5	4
O=C(Nc1ccccc1F)N1CC2(C1)[C@@H](c1ccccc1)[C@@H](CO)N2C(=O)CC1CC1	3.5	3	-1
O=C(C[C@H]1CC[C@@H]2[C@H](COC[C@H](O)CN2Cc2ccc(C(F)(F)F)cc2)O1)NCCc1ccccc1	/	?	/
COc1cc(CN2[C@@H]3CNC[C@H]2C3c2ccc(/C=C/c3ccccc3)cc2)cc(OC)c1 (stereo partly drawn)	-3.6&14	13&-2	17&-16
C[C@H](CO)N1C[C@H](C)[C@H](CN(C)C(=O)N[C@H](C)c2ccccc2)OCc2ccccc2-c2c(n(C)c3ccccc23)C1=O	/	?	/

Reprinted at random: two entries already listed.
SMILES	DUX4 txn inh control	DUX4 txn inh	DUX4 txn inh difference
CCN1[C@@H]2c3ccc(C4=CCCCC4)c(=O)n3C[C@H]1[C@H](CO)[C@H]2C(=O)NCCc1ccncc1	4.0	-8	-12
COc1cc(CN2[C@@H]3CNC[C@H]2C3c2ccc(/C=C/c3ccccc3)cc2)cc(OC)c1 (stereo partly drawn)	-3.6&14	13&-2	17&-16
